# NPYLR7 agonist – activates Aedes aegypti NPYLR7 receptor | HEK293T NPYLR7/Galpha15, GCaMP6s calcium fluorescence | activation, % at 10 µM | 270,000 compounds, 0.15% hits | AID 1259423; in the data active = activation above about 40%;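 also: 0% = vehicle and 100% = reference agonist at the receptor; some compounds past the cut are filed as inactive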
# NPYLR7 agonist max-min – further read-out of NPYLR7 agonist, marked with its call; activation, %; measured here: Max-Min RFU normalised activation; some inactives read as strong as hits;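 span of the calcium signal over five minutes; 0% = vehicle and 100% = native peptide agonist; compound fluorescence can raise it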
# Numbers without * were called inactive; & = joins results of further samples. Not all compounds are listed; the hit share may differ from the screen's.
SMILES,NPYLR7 agonist,NPYLR7 agonist max-min
COc1ccc(OCc2ccc(-c3nc(C#N)c(N(C)Cc4ccccc4)o3)o2)cc1,0,1
COC(=O)c1ccc(S(=O)(=O)Nc2cccc(S(N)(=O)=O)c2)cc1,1,5
Cc1cc(C(=O)Cn2cnc3c2c(=O)n(C)c(=O)n3C)c(C)n1CCC1=CCCCC1,1,-3
CCOCCOc1nc(-c2ccc(OC)cc2)n(-c2ccc(NC(=O)Nc3ccccc3C)cc2)n1,14,13
O=C(NC(c1ccccc1)c1ccccc1)N1CCC(c2nnc(-c3ccco3)o2)CC1,-18,-20
COc1ccc2[nH]c3c(N(C)C)ncnc3c2c1,12&-8,8&-14
O=C(NNC(=O)c1ccc(=O)n(Cc2ccccc2)c1)c1ccc(Cl)cc1,-12,-17
CC(NC(=O)C1CCN(CCc2ccccc2)CC1)c1cccc2ccccc12 (stereo not drawn),17,3
COC(=O)C(O)(c1ccc(N(C)C(C)=O)cc1)C(F)(F)F (stereo not drawn),8,8
COc1cccc(-c2nnc(SCc3ccc(C(=O)NCc4ccc5c(c4)OCO5)cc3)n2-c2ccccc2OC)c1,5,11
O=C1NC2(CCN(C(=O)c3ccc(F)cc3)CC2)Nc2ccc(Cl)cc21,2,13
CCCSC=C(O)C(C#N)S(=O)(=O)c1ccc(Cl)cc1 (stereo not drawn),9,7
Cc1nc(NCCNC(=O)c2sc(-c3ccccc3)nc2C)cc(-n2ccnc2C)n1,-17,-21
CC(C)Nc1ncc(CN2CCC(Cc3cccc(C(=O)O)c3)C2)cn1 (stereo not drawn),-2,5
Cc1cc(=O)[nH]c(-n2cc(C(=O)c3cc(Br)ccc3O)cn2)n1,3,3
CCc1c(C)nn(-c2ccc(C(=O)NCCC3=CCCCC3)cc2)c1C,-4,-2
COCCN(Cc1csc(COc2cc(Cl)ccc2Cl)n1)C(=O)c1cccs1,1,13
COCCCNC(=O)c1ccccc1N1CCC(NC(=O)c2ccccc2C)CC1,-1,5
O=C(NCC1CCCO1)Nc1nc2ccc(F)cc2s1 (stereo not drawn),9,8
CCOCCCN1CC2=C(C1=O)C(c1ccc(OC)cc1)NC(=O)N2 (stereo not drawn),11,8

# Of the compounds above, 3 contain fluorine.
SMILES,NPYLR7 agonist,NPYLR7 agonist max-min
COC(=O)C(O)(c1ccc(N(C)C(C)=O)cc1)C(F)(F)F (stereo not drawn),8,8
O=C1NC2(CCN(C(=O)c3ccc(F)cc3)CC2)Nc2ccc(Cl)cc21,2,13
O=C(NCC1CCCO1)Nc1nc2ccc(F)cc2s1 (stereo not drawn),9,8

# (listing goes on)
SMILES,NPYLR7 agonist,NPYLR7 agonist max-min
CCCCCCCC(=O)N1CCCC1C(=O)Nc1nnc(-c2cccc(Cl)c2)s1 (stereo not drawn),7,-4
CC(C)S(=O)(=O)c1ncc(CN(C)C2CCOC2)n1CCc1ccccc1 (stereo not drawn),11,4
Cc1ccc(C(=O)NCCSc2ncc(-c3ccccc3)[nH]2)cc1C,7,5
CCc1cc(-n2cnc(C#N)n2)ncn1,2,-1
CCOC(=O)C1CCN(CC(=O)N2N=C(c3ccccc3Cl)CC2c2ccc(C)cc2)CC1 (stereo not drawn),1,4
OCC1(CO)C2C3C4CC5C6C4C2C6C1C53 (stereo not drawn),5,-1
O=C(Cc1c(F)ccc(F)c1F)NCC1CC(Cc2ccc(F)cc2)=NO1 (stereo not drawn),12,-3
Clc1cccc(-c2cnc(CSc3nnc(-c4ccc5c(c4)OCO5)o3)o2)c1,-1,-4
CC(c1cccc(Cl)c1)N(C)C(=O)Nc1ccccc1SCC(N)=O (stereo not drawn),13,15
Cc1ccn(CCC(=O)NCCN2Cc3ccccc3OC(c3ccccc3F)C2)n1 (stereo not drawn),0,-7
COCCCN(CC(=O)N1CCc2sccc2C1c1ccccc1C)C(=O)c1ccc(Cl)cc1Cl (stereo not drawn),14,14
CCCCC1C=CCN1C(=O)Cc1c[nH]c(=O)n(C)c1=O (stereo not drawn),4,1
CC(=O)Nc1ccc(C(=O)NCc2ccc(S(=O)(=O)N3CCCCC3)cc2)s1,7,2
O=C(NCc1n[nH]c(=S)n1-c1ccc(Cl)c(Cl)c1)c1cccc2ccccc12,-1,-2
NC(=S)Nc1ccc(F)c(Cl)c1,1,1
Cc1ccc2ncn(CC(O)c3ccccc3Cl)c(=O)c2c1 (stereo not drawn),0,-2
CN(C(=O)Cn1nc(C(=O)O)c2ccccc2c1=O)c1ccccc1,-1,-2
CCOc1cccc(-c2ccc(C(N)=O)cn2)c1,-2,0
Cc1cccc2[nH]c(CN(C)C(=O)Cn3nnnc3CN(C)C(C)C)nc12,9,2
Cc1cnccc1CN(C)Cc1cn[nH]c1C(=O)O,25,19
CCCCN1CC(c2nc3ccccc3n2CCOc2ccccc2)CC1=O (stereo not drawn),-1,-4
COc1ccccc1CN(CCc1c[nH]c2ccccc12)C(=O)CN(Cc1ccc(F)cc1)C(=O)c1ccc([N+](=O)[O-])cc1Cl,19,21
COC(=O)c1ccc2c(c1)CCN2C(=O)c1c(C)noc1C,-3,-3
C#CCOCC(O)CN(Cc1c(C(C)C)nn(-c2ccc(OC)cc2)c1Oc1ccccc1)C1CC1 (stereo not drawn),31,28
CC(=O)OCC(=O)[C@@]1(OC(C)=O)[C@@H](C)C[C@H]2[C@@H]3C[C@H](F)C4=CC(=O)C=C[C@]4(C)[C@@]3(F)[C@@H](O)C[C@@]21C,-4,-7
O=S(=O)(Nc1ccc(Cl)cn1)c1ccccc1,8,5
CNC(=O)c1ccc(CNC(=O)C2=C(C)Oc3ccccc3C2)cc1,-33,-32
CC(C)S(=O)(=O)Oc1ccc(CN(C(=O)c2ccccc2Cl)C2CC2)cc1,-1,12
O=C(NC12CC3CC(CC(C3)C1)C2)c1cc2nc(-c3cccs3)cc(C(F)(F)F)n2n1,-17,-28
Cc1cccc2c(-c3ccc(CN4CCN(C)CC4)cn3)c[nH]c12,1,2
Cc1occc1-c1n[nH]c(=S)n1C,1,0
CN(C(=O)CCC(=O)N1CCOCC1)c1ccc2ccccc2c1,-7,-8
COc1cccc(CN(Cc2ccco2)Cc2ccc(C(C)(C)O)o2)c1,10,8
CC#CCOC(=O)c1c(C)nc2sc3c(c2c1N)CCC(O)C3 (stereo not drawn),0,-7
CCOC(=O)c1nn(-c2ccccc2)c(=O)c2c(NC(=O)CSCc3ccccc3)scc12,-2,-5
CCN(C(=O)c1cc(Br)cn1CC)C1CC(=O)NC1=O (stereo not drawn),3,-1
O=[N+]([O-])c1ccc(NN=C2c3ccccc3-c3ccccc32)c(S(=O)(=O)N2CCOCC2)c1,6,8
Cc1noc(C)c1CSc1nn(-c2ccc(Cl)cc2)c(=S)s1,8,8
CCCNC(=O)CN1CCN(Cc2ccc3c(c2)OCO3)CC1,19,7
N#CCCN(C(=S)NC(=O)C1CC1)c1ccccc1,-1,-2
CCc1nn2c(N3CCN(CC)CC3)cc(C)nc2c1-c1ccccc1,4,3
CCn1c(Br)nc2c1c(=O)n(C)c(=O)n2C,-3,-6
CCc1cccc(NC(=O)c2ccc(S(=O)(=O)N(C)C)cc2)c1,9,6
O=C(CSc1nnc(-c2ccccc2)n1-c1ccccc1)N/N=C\c1ccc(Cl)c(Cl)c1,-5,-11
CCn1cc(CN2CCC(O)(c3cccc(C(F)(F)F)c3)CC2)cn1,1,-5
CC(=O)Nc1ccccc1OS(=O)(=O)c1ccc(Br)cc1,1&-5,4&8
CCC(C)C(=O)N1CSCC1C(=O)Nc1ccc(C#N)cc1 (stereo not drawn),-1,-3
C=C(C)CSc1ncnc2c1sc1nc3c(cc12)COC(C)(C)C3,8,5
CC1CCCC(C)C1NC(=O)Nc1nncs1 (stereo not drawn),0,41
Cc1ccc(-c2noc(C(C#N)=Cc3ccncc3)n2)cc1,0,-3
CC(=O)NC1CCCN(C(=O)C(CC(C)C)NS(C)(=O)=O)C1 (stereo not drawn),1,17
Cc1cc(C(=O)N2CCc3onc(-c4ccc(C(F)(F)F)cc4)c3C2)no1,10,3
COc1ccc(C2CC(=O)Nc3n[nH]c(C)c32)cc1 (stereo not drawn),-2,0
COc1ccc(C2=CCCS2(=O)=O)c2ccc(C)nc12,4,1
O=C(NCCO)c1ccc(/C=N\O)nc1,4,4
O=C(NCC(c1ccco1)N1CCCC1)N1CCC(c2ncc(-c3ccc(F)c(F)c3)[nH]2)CC1 (stereo not drawn),1,7
O=C1OC(/C=C/c2ccc(Cl)cc2)=NC/1=C\c1coc2ccccc2c1=O,-8,-11
Cc1ccc(C2=Nc3nnnn3C(c3ccc(Br)cc3)C2)cc1C (stereo not drawn),4,2
O=C1CCN(Cc2nc(CCCc3ccccc3)no2)C(=O)N1,1,8
COc1cc(-n2ncc3ccccc32)ccc1NC(C)=O,-8,-8

# Going on with the list.
SMILES,NPYLR7 agonist,NPYLR7 agonist max-min
CCCCN(CC(=O)Nc1cc(-c2ccccc2)nn1-c1ccc(Cl)cc1)C(=O)C1CCCC1,11,1
Cc1ccc(NC(=O)c2ccc(-n3nc(-c4cccc(C(F)(F)F)c4)cc3N)cc2)cc1,-8,-12
CN1CCN(C(=O)C23CC4CC(CC(C4)C2)C3)CC1,-2&6,-7&5
Fc1cc(Cl)ccc1N1CCN(c2c3c(nc4ncnn24)CCC3)CC1,5,-1
O=C(Nc1cccs1)NC1CC(=O)N(CCc2ccccc2)C1 (stereo not drawn),9,6
Cc1sc(-n2cccc2)c(C(=O)N2CCN(S(=O)(=O)N3CCCC3)CC2)c1C,2,1
C=CCN(Cc1ccccc1Cl)C(=O)CC1C(=O)N(C)C(=O)N1C (stereo not drawn),8,8
CC(C)(C)OC(=O)Nc1cccc(C(=O)N2CCC(=Cc3cccc(F)c3)CC2)c1,6,3
CC(C)(CNC(=O)C1CCCO1)c1ccc(Br)cc1 (stereo not drawn),1,1
COc1ccc(/C=C2/SC(=Nc3ccccc3Cl)NC2=O)cc1,-7,-10
Cc1nn(C(=O)C(C)n2cc([N+](=O)[O-])cn2)c(C)c1Cl (stereo not drawn),-2,-3
O=C(NNC1=NCCCCC1)C(F)(F)C(F)(F)C(F)(F)F,0,11
O=C(CCC(=O)N1CCc2ccccc21)NC(c1ccc(F)cc1)c1ccc(SCc2ccccc2)cc1 (stereo not drawn),-2,-6
CC(C)(C)N1CC(c2nc3ccccc3n2Cc2ccccc2Cl)CC1=O (stereo not drawn),1,-1
COCC(=O)N1CCCN(CC(=O)Nc2ccc(N(C)C(C)=O)cc2)CC1,6,-8
COc1cc2c(cc1OC)C(c1c(F)cccc1Cl)N(C(=O)Nc1ccc(F)cc1F)CC2 (stereo not drawn),17,7
CCN1CCC(CN(CC)c2nc(CCN)nc3ccccc23)C1 (stereo not drawn),4,1
COCCN(Cc1ccc2nsnc2c1)CC1CCCN(C2Cc3ccccc3C2)C1 (stereo not drawn),19,11
O=C(NCCNC(=O)[C@H]1CCCN1C(=O)CSc1ccccc1)c1ccc(F)cc1,5,7
O=C(NCC1CCCO1)c1oc2ccccc2c1CNCC1CCCO1 (stereo not drawn),2,19

# Profiles, looked up by structure. Screens in order: NPYLR7 agonist | NPYLR7 agonist max-min
# `Fc1cc(Cl)ccc1N1CCN(c2c3c(nc4ncnn24)CCC3)CC1` across the screens: 5 | -1
# `COc1cc2c(cc1OC)C(c1c(F)cccc1Cl)N(C(=O)Nc1ccc(F)cc1F)CC2` (stereo not drawn) across the screens: 17 | 7
# `Cc1nn(C(=O)C(C)n2cc([N+](=O)[O-])cn2)c(C)c1Cl` (stereo not drawn) across the screens: -2 | -3
# `CCN1CCC(CN(CC)c2nc(CCN)nc3ccccc23)C1` (stereo not drawn) across the screens: 4 | 1
# `CC(C)(C)OC(=O)Nc1cccc(C(=O)N2CCC(=Cc3cccc(F)c3)CC2)c1` across the screens: 6 | 3

# Entries listed so far with an aryl thioether with sulfur outside any ring:
SMILES,NPYLR7 agonist,NPYLR7 agonist max-min
COc1cccc(-c2nnc(SCc3ccc(C(=O)NCc4ccc5c(c4)OCO5)cc3)n2-c2ccccc2OC)c1,5,11
Cc1ccc(C(=O)NCCSc2ncc(-c3ccccc3)[nH]2)cc1C,7,5
Clc1cccc(-c2cnc(CSc3nnc(-c4ccc5c(c4)OCO5)o3)o2)c1,-1,-4
CC(c1cccc(Cl)c1)N(C)C(=O)Nc1ccccc1SCC(N)=O (stereo not drawn),13,15
Cc1noc(C)c1CSc1nn(-c2ccc(Cl)cc2)c(=S)s1,8,8
O=C(CSc1nnc(-c2ccccc2)n1-c1ccccc1)N/N=C\c1ccc(Cl)c(Cl)c1,-5,-11
C=C(C)CSc1ncnc2c1sc1nc3c(cc12)COC(C)(C)C3,8,5
O=C(CCC(=O)N1CCc2ccccc21)NC(c1ccc(F)cc1)c1ccc(SCc2ccccc2)cc1 (stereo not drawn),-2,-6
O=C(NCCNC(=O)[C@H]1CCCN1C(=O)CSc1ccccc1)c1ccc(F)cc1,5,7

# Continued.
SMILES,NPYLR7 agonist,NPYLR7 agonist max-min
Cc1cc(OCC(=O)NNC(=O)/C=C\c2ccccc2)cc(C)c1Cl,-2,3
COCCn1c(SCC(=O)OCc2ccccc2)nc2c1c(=O)[nH]c(=O)n2C,8,3
O=C1CCSc2ccc(C(=O)N(Cc3ccco3)Cc3cccs3)cc2N1,-4,-2
CCCc1c(C)nn(-c2ccc(C(=O)NCCC(c3ccccc3)c3ccccc3)cc2)c1C,-9,-13
CCCn1cc(C(=O)NCc2cccnc2N2CCN(C)CC2)c(C)n1,23,11
COc1cccc(-c2cc(C(=O)NC3CCN(Cc4ccccc4)CC3)nc3cc(C(C)(C)C)nn23)c1,-7&10,2&16
COc1ccc(S(=O)(=O)N2CCC(Cc3ccccc3)CC2)cc1N1CCN(C(=O)c2cc3ccccc3s2)CC1,6,8
CN(Cc1ccncc1)C(=O)COc1ccc2ccccc2c1,9,6
CC1=C(C(=O)O)Cc2ccccc21,-3,-5
O=C(NCCSC(F)(F)F)c1ccc(Cl)c2cccnc12,4,8
